gsp agonist – gsp mutant agonism; AID 624287; Potency, µM (highest dose often 76.9 µM), inactives show at the top dose activation (cAMP increase), hits mostly activators; hit rate 0.13% among 340,000; gsp mutant cells, cAMP HTRF, 30 min; control for the full effect not named in the record; active = well fitted activation curve with a large enough effect; inconclusive = small, poorly fitted or top-dose-only effect, or another doubt; inactive = no such curve, though single readings can be large or run the other way; cell line not stated here;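 also: phosphodiesterase inhibitor Ro 20-1724 added with compounds to block cAMP breakdown; potency is read from the fitted curve at half-maximal effect; nearly all actives have a fitted effect of over 60% in size; about a fifth of the inactives were tested at one dose only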
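Cells stably selected in G418 were plated at 2000/well, grown 16-24 hr, then given compounds in DMSO with the PDE inhibitor […] (300 uM solution added) for 30 min at 37C; cAMP was read by HTRF.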
TRPML1 ag – agonists of human TRPML1 channel; Q9GZU1; TRPML1-expressing cells, Ca2+ dye fluorescence, FDSS; host cell line not named in the record; reference of the full effect not given here; activation, % (concentration not given with the values); hit rate 0.12% among 410,000; in the data active = activation above about 50%; inconclusive = about 30% to 50%; inactive = below about 30%; also: 0% is about no effect; the text of the record puts the active cut at 80%
Target sequence (Q9GZU1 whole entry, looked up): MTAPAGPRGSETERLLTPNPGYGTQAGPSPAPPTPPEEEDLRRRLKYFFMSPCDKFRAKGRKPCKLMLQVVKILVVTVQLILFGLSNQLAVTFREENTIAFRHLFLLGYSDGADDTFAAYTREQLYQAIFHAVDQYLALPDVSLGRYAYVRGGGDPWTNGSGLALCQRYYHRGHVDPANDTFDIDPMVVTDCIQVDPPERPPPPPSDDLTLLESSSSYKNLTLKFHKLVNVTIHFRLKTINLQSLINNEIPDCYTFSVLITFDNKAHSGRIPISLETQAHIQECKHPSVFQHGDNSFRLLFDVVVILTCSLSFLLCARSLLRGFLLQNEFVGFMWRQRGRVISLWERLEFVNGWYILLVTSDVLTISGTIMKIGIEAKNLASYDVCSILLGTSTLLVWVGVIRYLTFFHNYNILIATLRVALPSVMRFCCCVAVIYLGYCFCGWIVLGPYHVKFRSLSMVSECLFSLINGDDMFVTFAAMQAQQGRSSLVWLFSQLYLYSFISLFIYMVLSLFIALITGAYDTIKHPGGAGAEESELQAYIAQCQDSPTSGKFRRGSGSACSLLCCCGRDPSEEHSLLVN
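Cells: TRPML1-DL, 1X Tet inducer, ~16 h at 37 degrees C/5% CO2. Dye: ABD Ca8 no-wash + quencher, 45-90 min RT. Read: 10 s baseline, compound add, 110 s agonist phase; 54-4 EC80 (4uM final), 110 s antagonist phase.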
Menin-MLL FL inh – displaces fluorescein MLL peptide from human menin. Fluorescence polarization, fluorescein-MLL peptide displacement from menin. FP activity change, % at 61.4 µM. 290,000 tested, under 10 active; inconclusive = falling polarisation curve, or a change in total fluorescence; inactive = total fluorescence flat and polarisation flat or rising; no compound was filed as active; the % refers to the polarisation; negative = inhibition;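 also: % of control where 0% means no effect; inhibitors lower the polarisation; unlabelled MLL peptide was the positive control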
gsp antag – gsp mutant antagonism; gsp-mutant cells, cAMP HTRF, 30 min; control for the full effect not named in the record; Potency, µM (doses to about 76.9 µM), for the others: at the top dose activity change, negative = inhibition, most hits filed as inhibitors; hit rate 0.4% among 340,000; active = falling curve of any shape with a large fitted effect; inconclusive = falling curve, mostly with a smaller effect; inactive = flat or rising curve; cell line not stated here;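 also: intracellular cAMP measured with PDE inhibitor Ro 20-1724 present during compound exposure; potency is read from the fitted curve at half-maximal effect; % is scaled to controls: 0 for no effect and ±100 for the full control effect; nearly all actives have a fitted effect of over 65% in size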
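HTRF cAMP measurement after 30 min RT detection following 30 min, 37C compound treatment alongside […] (added as 300 uM solution) in G418-selected cells seeded at 2000/well and grown 16–24 h.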
TRPML1 blocker – inhibitors of human TRPML1 channel | Q9GZU1 | TRPML1-inducible cells, Ca2+ dye fluorescence, FDSS; hits give low values; inhibition of EC80 agonist-evoked calcium signal | activity change, negative = inhibition, % (concentration not given with the values) | hit rate 0.02% among 390,000; in the data active means activity change below about -50%; inconclusive means about -30% to -50%; inactive means above about -30%;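 also: stimulus is agonist 54-4 at its EC80 concentration; % is scaled to controls: 0 for no effect and ±100 for the full control effect; compound concentration not given in the record; the text of the record puts the active cut at -80%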
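Calcium fluorescence in TRPML1-DL cells induced overnight with Tet: a 110 s read after compound pin addition, then a 110 s antagonist read after challenge with 54-4 at 4 uM final (EC80).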
ClpP mod – qHTS Assay for Activators of ClpP | ATP-dependent Clp protease proteolytic subunit (Bacillus subtilis (strain 168)), P80244 | purified B. subtilis ClpP, FRET peptide cleavage, 20 min | Potency, µM (titrated, usually from 57.5 µM), inactives show at the highest dose activity change, negative = active | hit rate 1.9% among 340,000; active = well fitted falling curve with a large enough effect; inconclusive = small, poorly fitted or top-dose-only effect; inactive = no such curve, though single readings can be large or run the other way; also: potency is read from the fitted curve at half-maximal effect; the source files actives as falling curves though it sought activators and does not explain the sign; nearly all actives have a fitted effect of over 65% in size; many hits overshoot -100%
Target sequence (P80244 whole entry, looked up): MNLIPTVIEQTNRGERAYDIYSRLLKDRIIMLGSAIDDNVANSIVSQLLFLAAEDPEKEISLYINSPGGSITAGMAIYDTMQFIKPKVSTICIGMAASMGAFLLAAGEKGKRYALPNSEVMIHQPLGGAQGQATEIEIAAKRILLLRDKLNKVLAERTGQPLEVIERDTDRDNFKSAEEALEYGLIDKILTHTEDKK
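Purified B. subtilis ClpP, 10 microg/mL final in Tris/HCl pH8 with KCl, BSA, glycerol and Tween-20, cleaved an Abz/nitrotyrosine-quenched decapeptide. Fluorescence (ex 320, em 430) was read at 0 and 20 min at room temperature. Delta was normalized to 5.8 microM ADEP and DMSO/no-enzyme controls.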
The depositor's hits bear a star; ? = inconclusive; nt = no result given; & = joins results of further samples; [ ] = another dose, or the depositor's remark.

SMILES | gsp agonist | TRPML1 ag | Menin-MLL FL inh | gsp antag | TRPML1 blocker | ClpP mod
CCOc1ccc(S(=O)(=O)N2CCCC(C(=O)Nc3cccc(C)c3)C2)cc1 (stereo unspecified) | 21%[15.4 µM] | -0.2 | 0.4 | 1% | 2 | 0.7%
O=C(Nc1ccc(N2CCN(C(=O)c3ccco3)CC2)cc1)c1ccccc1F | 8% | 0.6 | -0.7 | -22% | -3 | -0.1%
O=C1/C(=C\c2cccnc2)Sc2ccccc21 | -6%[15.4 µM] | 3.9 | 10 | -1% | 6 | 1.0%
COc1ccc(CCNc2nc3c(-c4cccc(C(F)(F)F)c4)nnn3c3ccccc23)cc1OC | nt | -0.5 | nt | nt | -6 | 6.0%
COc1ccccc1NC(=O)NCCc1ccccc1 | ? | -0.4 | nt | 7% | 6 | 0.1%
CCOC(=O)N1CCC(NC(=O)c2ccc(N3CCC4(CC3)OCCO4)c([N+](=O)[O-])c2)CC1 | -28%[15.4 µM] | 0.8 | 1.3 | -3% | -2 | -3.7%
O=C(NC1CCCCC1)N1CCCC1 | -4% | -0.3 | 5.6 | 12% | 6 | 0.2%
O=C(Cn1c2ccccc2c(=O)c2ccccc21)Nc1cccc(F)c1 | 9% | 0.5 | 7.8 | -3% | 33 | 3.9%
O=C1CC(C(=O)O)S/C(=N\NC(=O)c2ccc(F)cc2)N1 (stereo unspecified) | 6% | 0.3 | 1.3 | 8% | 1 | -2.2%
O=C(COc1cccc(NC(=O)c2cccc([N+](=O)[O-])c2)c1)c1ccc(F)cc1 | 1% | 0.3 | 4.8 | ? | -4 | -1.1%
CCOC(=O)N1CCN(C(=O)c2ccc(Cl)c(S(=O)(=O)N3CCOCC3)c2)CC1 | 27% | 2.0 | -4.2 | -13% | -9 | -0.8%
CCC(C)c1ccc(O)c(NC(=O)c2ncn[nH]2)c1 (stereo unspecified) | 1% | -0.5 | 7.5 | -11% | 7 | 1.2%
CNc1nc(N)c(C(=O)C23CC4CC(CC(C4)C2)C3)s1 | 6% | 1.1 | 4.8 | ? | 42 | nt
O=C(CSc1nc2nn(-c3ccccc3)c(=O)c-2c2n1CCCCC2)c1ccc(O)c(O)c1 | -2% | 2.8 | nt | -33% | 7 | 1.1%
CCN1C(=O)[C@H]2[C@@H](c3ccc(OC)cc3)N[C@]3(CCCN(Cc4ccc(Cl)cc4)C3=O)[C@H]2C1=O | -61%[inhibitor] | -0.3 | nt | nt | -12 | 0.0%
c1cncc(-c2nc(-c3ccc4c(c3)OCO4)cs2)c1 | 2% | 2.1 | 5.3 | -1% | -5 | -6.5%
O=C(CSc1nc2[nH]ncc2c(=O)n1-c1ccccc1)NCc1cccs1 | -27% | 1.2 | -0.6 | 10% | -26 | 2.9%
COCc1cc(C)n(CC(=O)Nc2ccc(N3CCOCC3)c(Cl)c2)c(=O)c1C#N | -7% | 0.2 | -0.4 | 0% | 30 | nt
COc1ccc(NC(=O)COc2ccc(N(C)S(=O)(=O)c3ccc(Cl)cc3)cc2)cc1OC | -19% | -0.5 | nt | ? | -2 | 1.2%
COC(=O)c1ccc(NC(=O)C2CC(=O)N(c3cc(C)ccc3C)C2)cc1 (stereo unspecified) | ? | -0.1 | -2.8 | 1% | -4 | 0.2%
CC(CNC(=O)C(=O)NC(C)CCc1ccccc1)Cc1ccccc1 (stereo unspecified) | 16% | -0.5 | 1.6 | 1% | 7 | 0.4%
COc1ccc(CN(C)C(=O)c2cccc(NS(=O)(=O)c3ccccc3)c2)c(OC)c1 | 0% | 2.1 | nt | -10% | 29 | 0.1%
Cc1oc2cc(OC(C)C(=O)O)ccc2c(=O)c1Oc1ccccc1 (stereo unspecified) | -10% | 0.5 | -1.2 | 6% | 1 | -2.9%
Cc1cc(OCC(=O)N(C)c2ccccc2)cc2c1C(=O)CC(C)(C)O2 | 0%[15.4 µM] | 1.3 | 1.9 | -18% | -2 | nt
NC(=O)CSc1cn(Cc2cccc(F)c2)c2ccccc12 | -53%[inhibitor] | 1.0 | -1.4 | 4% | 5 | nt

More results
SMILES | gsp agonist | TRPML1 ag | Menin-MLL FL inh | gsp antag | TRPML1 blocker | ClpP mod
Cn1c(SCc2ccccc2)nnc1-c1cccs1 | 10% | 1.1 | 0.0 | -3% | 18 | -1.1%
CC(=O)Nc1ccc(SCC(=O)c2cc(C)ccc2C)cc1 | -4%[15.4 µM] | -0.3 | 0.8 | 6% | -5 | nt
COc1ccc(C)cc1N(CC(=O)NC1CCCC1)C(=O)Cn1nnc(-c2ccc(C)o2)n1 | -1%[15.4 µM] | 2.4 | 0.8 | -13% | -9 | nt
COc1ccccc1/C=C/C(=O)NC(=S)Nc1ccc(S(=O)(=O)N(C)c2ccccc2)cc1 | 2% | 0.5 | nt | -24%[15.4 µM] | -8 | 0.3%
CC(=O)Nc1ccc(S(=O)(=O)NCCc2csc3nc(-c4ccc(Cl)cc4)nn23)cc1 | nt | 0.2 | nt | nt | -29 | -5.7%
CCOc1ccccc1C(=O)NC(C(=O)OCC(=O)Nc1nnc(-c2ccccc2)o1)C(C)C (stereo unspecified) | -49%[inhibitor] | -0.1 | 4.0 | -4% | -19 | -10%
O=C(Nc1cnn(Cc2ccc(F)cc2)c1)c1cnn2c(C(F)F)cc(-c3ccccc3)nc12 | 3% | 0.9&2.0 | 4.1 | ? | 2&8 | nt
COCCNC(=O)CSc1nc2cc(OC)c(OC)cc2c(=O)n1CCc1ccc(S(N)(=O)=O)cc1 | 8% | -0.1 | -1.8 | 3% | -25 | nt
Cc1cc(Cl)ccc1NC(=S)NCC(O)c1ccccc1 (stereo unspecified) | -21%[15.4 µM] | 1.4 | 1.1 | 4% | 26 | -2.4%
Cc1ccc(NC(=O)CSc2nnnn2C)cc1S(=O)(=O)N1CCCCC1 | -73%[inhibitor] | -0.3 | nt | nt | -28 | -5.6%
COc1ccc(-c2nc(CSCC(=O)NCc3ccccc3Cl)c(C)o2)cc1OC | nt | 1.2 | nt | nt | 17 | 20µM*
Cc1ccc(C)c(OCc2cc(C(=O)N3CC[C@@H]4CCCC[C@H]4C3)no2)c1 | 0%[15.4 µM] | -0.2 | nt | -9% | 9 | -0.5%
COc1ccccc1CNC(=O)Cn1cc2c(n1)CCCC2 | 2% | 0.3 | 3.7 | 3% | 0 | 2.2%
C=CC[C@@H](CC(=O)N[C@H](CO)Cc1ccccc1)C(=O)N[C@H](COC(=O)[C@H](CC=C)CC(=O)OC(C)(C)C)Cc1c[nH]c2ccccc12 | nt | -0.2 | nt | -21% | 0 | -0.7%
Oc1ccc(Nc2nc3ccccc3nc2Nc2ccc(O)cc2)cc1 | 0% | 0.6 | 5.6 | 2% | 23 | 32µM*
COc1ccc(CC(=O)N/N=C/c2ccc(-c3cccc(C(=O)O)c3)o2)cc1OC | 21% | -0.1 | 21 | -5% | 12 | -29%
Cc1occc1C(=O)N/N=C/C=C/c1ccccc1[N+](=O)[O-] | -13%[15.4 µM] | -0.7 | -2.9 | -7% | 3 | nt
COc1ccc(COc2ccsc2C(=O)Nc2ccc(Cl)c(Cl)c2)cc1 | 3% | 0.0 | -1.4 | -1% | 0 | 149%
COc1ccc(C2CC(c3cccs3)=NN2C(=O)c2ccccc2)cc1OC (stereo unspecified) | 4%[15.4 µM] | 0.7 | 2.0 | -13% | 11 | -6.5%
O=c1c2ccccc2oc2cc(NCCCn3ccnc3)ccc12 | ? | -0.3 | 3.6 | -5% | -30 | 3.6%
CC(=O)c1cccc(NC(=O)Cn2cnc(S(=O)(=O)N3CCOCC3)c2)c1 | 4% | -0.5 | nt | 9% | -2 | -0.9%
Cc1ccc(NC(=O)c2ccc(-n3cncn3)c([N+](=O)[O-])c2)cc1 | -3% | 0.2 | -0.2 | -16% | 24 | 2.4%
O=C(NCc1ccncc1)c1cccc(Cn2cc(Br)cn2)c1 | ? | -1.0 | -0.4 | 5% | 3 | 0.7%
CCOC(=O)C1CCCN(S(=O)(=O)c2ccc3c(c2)CC(C)N3C(=O)C2CC2)C1 (stereo unspecified) | -5% | -0.1 | 2.1 | -8% | 11 | -0.2%
CCOc1ccc(NS(=O)(=O)c2cc3c(cc2Cl)NC(=O)CO3)cc1 | nt | 0.1 | nt | nt | 3 | -1.0%

Next structures follow.
SMILES | gsp agonist | TRPML1 ag | Menin-MLL FL inh | gsp antag | TRPML1 blocker | ClpP mod
COc1ccc(CC(=O)Nc2ccc(-c3noc(-c4ccccc4OC)n3)cc2)cc1 | 0% | 0.5 | 4.8 | 12% | -8 | 19%
COc1ccc(Nc2cc(Nc3ccc(OC)cc3)ncn2)cc1 | 17% | 0.3 | 3.6 | 4% | -14 | nt
CCc1ccccc1Nc1nc(N)nc(CSCC(=O)Nc2ccc(C)c(C)c2)n1 | -26% | 1.5 | 2.8 | -15% | 2 | 1.4%
Cc1cc(C)c(NC(=S)N(Cc2cccnc2)Cc2ccco2)c(C)c1 | 26%[15.4 µM] | -1.0 | 3.2 | 2% | -7 | -4.2%
COc1ccc(NC(=O)CSCC(=O)N(C)Cc2ccc(Cl)c(Cl)c2)cc1 | 21% | 0.7 | nt | -16% | 36 | 0.3%
O=c1[nH]c2ccccc2nc1/C=C(\O)c1cccs1 | -2%[15.4 µM] | 79* | ? | 3% | -17 | nt
C/C(=N\n1cnnc1)c1ccc(C#N)cc1 | -13% | 4.3 | 3.4 | 19% | 8 | 0.9%
COc1ccc(C(=O)/C=C/c2cn(CC(O)CN(CC(C)C)CC(C)C)c3ccccc23)cc1 (stereo unspecified) | nt | 0.2 | nt | nt | -4 | -1.5%
O=C(Nc1cc(F)ccc1F)N1CCN(c2ccnc3cc(Cl)ccc23)CC1 | -44%[inhibitor] | 2.6 | 3.7 | ? | -8 | -1.1%
Cc1ccc(N(C(=O)CNC(=O)c2ccco2)C(C(=O)NC2CCCC2)c2cccnc2)cc1 (stereo unspecified) | 17%[15.4 µM] | 0.0 | -3.0 | 2% | 24 | -0.8%
CCCn1c(=O)c2c(c3ccccc31)OC(C)C(=O)N2 (stereo unspecified) | 5% | -0.5 | -4.4 | 3% | -7 | -2.3%

Source: PubChem BioAssay (National Center for Advancing Translational Sciences (NCATS))

An unsorted share of the library (roughly 2.1% active in at least one column).
